miR-21 FLuc: miR-21 reporter, rising signal | HeLa miR-21 FLuc reporter, luciferase, 48 h | Potency, µM (doses to about 38.3 µM), inactives show at the top dose reporter change, positive = more light | 340,000 tested, under 10 active | AID 2288; active = well fitted rising curve with a large enough effect; inconclusive = small, poorly fitted or top-dose-only effect; inactive = no such curve, though single readings can be large or run the other way;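 further: % of control where 0% means no effect; miR-21 action dims this reporter so a rising signal means less miR-21 action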
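HeLa cells stably expressing CMV-driven firefly luciferase with a downstream miR-21 binding sequence, endogenously expressing miR-21, were treated with titrations (up to about 40uM final) for 48 hours at 37 degree Celsius. Luciferase luminescence was read after lysis.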
Rango release inh: inhibitors of RanGTP-induced Rango-importin beta complex dissociation; Potency, µM (top dose mostly 46.1 µM), for inactives: at the top dose activity change, negative = inhibition; hit rate 0.071% among 340,000; Biochemical FRET Rango-importin beta, RanGTP-induced dissociation; O95149+P62826; active means falling FRET ratio curve, often poorly fitted, with flat reads before Ran was added; inconclusive means other falling curves, or compound fluorescence or quenching; inactive means flat or rising ratio curve;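 further: potency means the concentration at half of the fitted maximal effect; % of control where 0% means no effect; nearly all actives have a fitted effect of over 45% in size; -100% = wells without RanGTP and RCC1; the record marks most hits as doubtful in a second field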
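Two FRET readings bracket the reaction: one 5 min after compound meets Rango–importin beta, another 45 min after RanGTP-RCC1 (0.6 uM Ran, 0.2 uM RCC1, 2 mM GTP) is added. Only the second defines inhibition.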
GLA inh pH 4.5: blocks human alpha-galactosidase A at pH 4.5. AID 1467. activity change, negative = inhibition, % at 105 µM. purified enzyme, 4-MU-alpha-Gal fluorescence, pH 4.5. 230,000 tested, under 10 active; inconclusive = small, poorly fitted or top-dose-only inhibition, or a rising curve; inactive = flat fitted curve, though single readings scatter; no compound was filed as active;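 further: 0% = full activity with enzyme and -100% = basal without enzyme; dose as in the result columns while the protocol names 77 µM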
Rango-impB inh: inhibitors of Rango-importin beta complex formation; Q14974; Rango CFP/YFP FRET sensor + importin beta, 45 min; Potency, µM (top dose mostly 92.2 µM), for the others: at the top dose inhibition of complex formation; hit rate 0.031% among 340,000; active = rising FRET ratio curve, often small or poorly fitted; inconclusive = mostly compound fluorescence or quenching in the first reads; inactive = flat curves in all reads;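 further: potency means the concentration at half of the fitted maximal effect; 0% = DMSO wells and 100% = buffer wells lacking importin beta; nearly all actives have a fitted effect of over 15% in size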
Target sequence (Q14974 whole entry, looked up): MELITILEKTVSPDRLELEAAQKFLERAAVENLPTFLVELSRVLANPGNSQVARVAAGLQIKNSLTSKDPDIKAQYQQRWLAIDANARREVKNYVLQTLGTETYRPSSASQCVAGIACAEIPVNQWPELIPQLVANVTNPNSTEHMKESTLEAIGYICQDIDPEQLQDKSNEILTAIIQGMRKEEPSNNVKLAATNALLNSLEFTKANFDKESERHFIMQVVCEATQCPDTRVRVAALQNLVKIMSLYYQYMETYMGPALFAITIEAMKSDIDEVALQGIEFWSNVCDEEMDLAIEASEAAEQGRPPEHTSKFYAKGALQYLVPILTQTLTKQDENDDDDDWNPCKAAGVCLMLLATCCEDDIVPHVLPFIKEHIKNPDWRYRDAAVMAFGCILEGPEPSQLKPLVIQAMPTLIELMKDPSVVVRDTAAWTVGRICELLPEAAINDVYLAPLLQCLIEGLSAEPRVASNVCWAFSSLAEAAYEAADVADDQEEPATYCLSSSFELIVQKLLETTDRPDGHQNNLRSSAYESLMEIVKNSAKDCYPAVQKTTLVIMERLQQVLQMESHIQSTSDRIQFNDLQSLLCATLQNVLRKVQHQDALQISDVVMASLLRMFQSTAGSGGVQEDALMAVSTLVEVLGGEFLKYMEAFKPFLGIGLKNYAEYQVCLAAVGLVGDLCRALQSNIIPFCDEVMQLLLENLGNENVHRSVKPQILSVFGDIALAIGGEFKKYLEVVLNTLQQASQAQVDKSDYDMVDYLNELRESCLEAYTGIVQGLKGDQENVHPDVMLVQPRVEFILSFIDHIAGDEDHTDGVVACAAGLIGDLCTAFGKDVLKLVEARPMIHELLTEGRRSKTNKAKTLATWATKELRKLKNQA
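FRET biosensor (snurportin 1 IBB flanked by EYFP and cerulean), 50 nM, with compound 5 min, then 0.125 microM importin beta in PBS, 1 mM DTT, 0.02% Tween-20, 0.1% BSA. CFP/YFP ratio read after 45 min at room temperature; pre-read flags interference.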
An asterisk follows results filed as active; ? = inconclusive; . = no result given.

| structure | Rango-impB inh | GLA inh pH 4.5 | miR-21 FLuc | Rango release inh |
| --- | --- | --- | --- | --- |
| O=C(CSc1ccc2ccccc2c1)NCCc1ccc(O)c(O)c1 | -3.3% | -5 | 0% | 3% |
| Cc1ccc(S(=O)(=O)CCC(=O)OCc2ccc(Cl)c(Cl)c2)cc1 | 6.2% | -9 | 2% | 13% |
| CCC[C@@H](CN[C@@H](CNC)[C@H](C)CC)NCC1CCC(C(C)(C)C)CC1 (some centres not stated) | -4.2% | . | ? | -7% |
| CC1(C)Cc2c(sc3nc(SCC(=O)O)nc(N)c23)CO1 | -3.4% | . | -1% | -2% |
| CC(C)CC(NC(=O)C1CCC(C)CC1)C(=O)Nc1ccccn1 (configuration not stated) | 0.0% | 5 | -37% | -2% |
| CN(C)c1ccc(CN2CCCCCC2)cc1 | 0.1% | 1 | -2% | -6% |
| O=C(CCc1nc2ccccc2c(=O)[nH]1)NCCN1C(=O)S/C(=C\c2ccc(OC(F)F)cc2)C1=O | ? | . | . | 4% |
| O=c1[nH]c(SCc2ccccc2)nc2ccsc12 | -0.5% | -3 | -30% | -3% |
| C=CCSc1nnc(-c2cc(C(C)(C)C)nn2Cc2ccc(F)cc2)n1C | -0.3% | -4 | 1% | 1% |
| COc1ccc(OC)c(NC(=O)C2CCCN(S(=O)(=O)c3ccc(-n4cnnn4)cc3)C2)c1 (configuration not stated) | -1.2% | . | 0% | -10% |
| O=C1CCc2cc(S(=O)(=O)NC(Cc3ccccc3)C(=O)NC3CCCC3)ccc2N1 (configuration not stated) | -0.2% | 3 | 0% | -24% |
| COc1ccc(-c2nnn(CCc3nn[nH]n3)n2)cc1OC | -4.3% | -5 | -1% | 8% |
| COCCN(C(=O)c1snc(C(N)=O)c1N)C(C(=O)NC1CCCCC1)c1cc(OC)c(OC)c(OC)c1 (configuration not stated) | -0.1% | . | 4% | 0% |
| CSc1ncccc1C(=O)OCC(=O)NC(C)C | 2.6% | 3 | 3% | 0% |
| C=C(C)Cn1c(N2CC(C)CC(C)C2)nc2c1c(=O)[nH]c(=O)n2C (configuration not stated) | 1.7% | 8 | -1% | 11% |
| S=c1[nH]nc(-c2ccc(Cl)cc2Cl)n1-c1ccc(Cl)cc1 | 1.4% | . | -6% | -12% |
| NNC(=O)C1CCN(S(=O)(=O)c2ccc(Cl)cc2)CC1 | 1.9% | . | . | 11% |
| CC(C)(C)c1ccc(C(=O)NCC(=O)O)cc1 | 0.2% | -5 | -2% | 7% |
| COC(=O)Nc1ccc2ncn(C)c(=O)c2c1 | -3.4% | 1 | 5% | -26% |
| CCCCn1c(=O)[nH]c(=O)c2c1nc(Cn1ncc(Cl)c(Cl)c1=O)n2CCC | -2.7% | . | ? | 1% |
| COc1cccc(C(=O)N(CN2CCCC2=O)c2cccc(Cl)c2)c1 | -3.0% | 10 | 3% | 0% |
| Cc1cc2ncn(CCOc3ccccc3C#N)c2cc1C | ? | -8 | -19% | 0% |
| Cc1c(NC(=O)CS(=O)(=O)c2ccccc2)c(=O)n(-c2ccccc2)n1C | -4.3% | -4 | 0% | 3% |
| O=C(CN1CCOc2ccccc21)NCc1ccccc1 | -3.0% | -9 | -11% | 1% |
| CC(=O)Nc1ccc(NC(=O)CSc2nnc(-c3cccnc3)o2)cc1 | 1.4% | . | . | 7% |
| COC(=O)C(C)NC(=O)c1ccc(C(C)(C)C)cc1 (configuration not stated) | -1.6% | -9 | -49% | -1% |
| COc1cccc(NC(=O)Cn2cnc3c(oc4nc5c(cc43)CCCC5)c2=O)c1 | 2.8% | . | -8% | 1% |
| Cc1ccc(NC(=O)N2CCCC(C(=O)O)C2)cc1 (configuration not stated) | -3.6% | 5 | -14% | -10% |
| COCCN1Cc2cccc(C(=O)Nc3ccc(C)cc3)c2C1=O | 1.6% | -5 | -14% | 23% |
| CC(C)(C)c1ccc(C(=O)NCc2ccc(Cl)cc2)cc1 | 1.2% | 0 | -21% | 10% |
| Cc1ccccc1NC(=O)OCc1ccccc1 | 1.2% | . | -46% | 20% |
| COc1cc(S(=O)(=O)NC2CCCC2)ccc1F | 0.2% | -1 | -5% | 5% |
| CCOc1ccc(CCNC(=O)Cn2c(=O)c3cccn3c3cccnc32)cc1 | -0.4% | . | -2% | -18% |
| Cc1ccc(/C([O-])=C(/C(=S)NCc2ccco2)[n+]2ccccc2)cc1 | . | -15 | -4% | . |
| Cc1ccc(CNC(=O)CCC2CCCN(Cc3cc4ccccc4o3)C2)o1 (configuration not stated) | 0.0% | -9 | -3% | -7% |
| COc1ccc(CCNC(=O)C23CN(Cc4ccccc4)CC2C(c2cccc([N+](=O)[O-])c2)=NO3)cc1 (configuration not stated) | 3.9% | -15 | 1% | 3% |
| Cc1onc(-c2c(Cl)cccc2Cl)c1C(=O)Nc1c(C)n(C)n(-c2ccccc2)c1=O | 1.6% | 1 | -2% | 2% |
| Cc1cc(=O)oc2cc(NC(=O)COc3ccccc3[N+](=O)[O-])ccc12 | 0.8% | . | . | 14% |
| CS(=O)(=O)N(Cc1ccccc1)c1ccc(C(=O)Nc2ccccc2C(=O)O)cc1 | -2.0% | . | 4% | 9% |
| Cn1c(O)c(N=NC(=N)N)c2ccccc21 | -0.3% | -1 | 3% | 2% |
| Cc1ccc(S(=O)(=O)N2CCN(C(=O)COC(=O)CNC(=O)c3ccc(Cl)cc3Cl)CC2)cc1 | -2.2% | . | . | 11% |
| CC1=Nn2c(nnc2-c2ccccc2Cl)SC1 | -2.1% | -4 | -2% | -5% |
| CCOc1ccccc1CNC(=O)CNC(=O)c1cccs1 | ? | . | 6% | ? |
| NS(=O)(=O)c1ccc(NC(=O)NC2CCCCC2)cc1 | 2.6% | 0 | -16% | 9% |
| O=C(CNC(=O)c1sc2ccccc2c1Cl)Nc1ccccc1F | -0.3% | . | . | -11% |
| COc1cc2c(C#N)c(N3CCc4ccccc4C3)nc(N)c2c(N)n1 | ? | 2 | -17% | -29% |
| CCOC(=O)c1c(NC(=O)CSc2nc3nc(C)cc(C)n3n2)sc(CC)c1C | -0.8% | -10 | -10% | 20% |
| CCOC(=O)C1(CC2CCCCO2)CCN(Cc2cccnc2)CC1 (configuration not stated) | 1.5% | 7 | 0% | 2% |

Retrieved one by one from above:
| structure | Rango-impB inh | GLA inh pH 4.5 | miR-21 FLuc | Rango release inh |
| --- | --- | --- | --- | --- |
| O=C(CNC(=O)c1sc2ccccc2c1Cl)Nc1ccccc1F | -0.3% | . | . | -11% |
| Cc1cc(=O)oc2cc(NC(=O)COc3ccccc3[N+](=O)[O-])ccc12 | 0.8% | . | . | 14% |
| COc1cc2c(C#N)c(N3CCc4ccccc4C3)nc(N)c2c(N)n1 | ? | 2 | -17% | -29% |
| CCOC(=O)c1c(NC(=O)CSc2nc3nc(C)cc(C)n3n2)sc(CC)c1C | -0.8% | -10 | -10% | 20% |

(continued)
| structure | Rango-impB inh | GLA inh pH 4.5 | miR-21 FLuc | Rango release inh |
| --- | --- | --- | --- | --- |
| C#CCNC(=O)C1=C[C@H](c2coc3ccccc3c2=O)C[C@H](OCc2ccc(CO)cc2)O1 | -1.9% | 3 | 2% | 18% |
| Cn1c(SCCOc2cccc(Cl)c2)nnc1-c1ccncc1 | 0.3% | 0 | -16% | -16% |
| COc1ccc(CNC(=O)CN(C(=O)c2csnn2)c2ccc(F)cc2)cc1 | 0.4% | . | -6% | -19% |
| COc1cc(C(=O)N2CCCc3ccccc32)cc(OC)c1OC | -2.9% | -2 | 21% | 2% |
| COCCn1c(N/N=C(C)/C=C/c2ccccc2)nc2c1c(=O)[nH]c(=O)n2C | . | 0 | 4% | . |
| CCOC(=O)C1(Cc2cccc(OC)c2)CCN(C2CCOCC2)CC1 | -2.7% | -2 | -48% | 18% |
| Cc1cccc(OCC(=O)N2CCN(C(=O)c3ccco3)CC2)c1 | 5.3% | -16 | -9% | 2% |
| COc1ccc(S(=O)(=O)N2CCOCC2)cc1NC(=O)Cc1ccccc1Cl | -1.5% | -1 | -3% | 1% |
| C#Cc1ccc([C@@H]2C=C(C(=O)OCC=C)O[C@H](OCC)[C@H]2CCCO)cc1 | -1.6% | -2 | 4% | 1% |
| CN(CCOc1ccccc1)C(=S)Nc1ccc(OC(F)F)cc1 | 6.6% | . | 0% | 23% |
| CCOC(=O)c1cc(NC(=O)C2CCCO2)cc(C(=O)OCC)c1 (configuration not stated) | 0.0% | 2 | -2% | 9% |
| CC(C)(C)[C@@H]1COC(=O)[C@H](Cc2ccc(F)cc2)CC/C=C\C[C@H](CC(=O)N(CCO)Cc2ccccc2)C(=O)N1 | -0.8% | . | . | -1% |
| CC(O)c1n(C)c(Cl)c[n+]1C (configuration not stated) | 7.4% | -6 | -1% | 23% |
| CC(C)(C)c1nnc(NC(=O)c2cc(-c3ccccc3)nc3ccccc23)s1 | 0.8% | -17 | -7% | -8% |
| CCCCc1c(O)nc(SCCN(C)C)n(-c2ccccc2)c1=O | 3.8% | -3 | 0% | 2% |
| COc1ccccc1S(=O)(=O)Cc1ccc(C(=O)NCc2cccs2)o1 | 5.2% | 8 | 0% | -5% |
| CCOc1ccccc1NC(=O)CSc1cn[nH]n1 | -4.4% | . | . | 1% |
| COC(=O)c1c(C)[nH]c(/C=N/Nc2ccccc2)c1C | -0.5% | -4 | -46% | -7% |
| CCCNC(=O)NC(=O)CN1C(=O)NC(C)(c2ccc(C)cc2)C1=O (configuration not stated) | -2.5% | -6 | -2% | -10% |
| Cc1ccc(C)c2c1N(Cc1ccccc1)C(=O)C21OCCO1 | 2.0% | . | -1% | -12% |
| O=C(O)CC1c2ccccc2CCN1S(=O)(=O)c1ccc(F)cc1 (configuration not stated) | -6.6% | . | 2% | -13% |
| CN1CCCC(OC(=O)CCCC(=O)OC2CCCN(C)C2)C1 (configuration not stated) | -0.7% | 3 | -4% | 3% |
| Cc1ccc2nc3ccc(N4CCCCCCC4)nn3c(=O)c2c1 | -5.2% | -3 | -34% | -23% |
| O=C(N/N=C/c1ccc2c(c1)OCO2)C(O)c1ccccc1 (configuration not stated) | -0.1% | 4 | -42% | 17% |
| CC(C)c1ccc(/C=N\NC(=O)c2ccc(Cn3cccn3)o2)cc1 | 17% | 1 | -35% | -1% |
| COc1cc(C=O)c(-c2c(C=O)cc(OC)c3c2OCO3)c2c1OCO2 | 0.7% | . | 7% | 0% |
| CC(=O)N1CCc2cc(S(=O)(=O)CCC(=O)Nc3c(C)n(C)n(-c4ccccc4)c3=O)ccc21 | 0.4% | 6 | -1% | 0% |
| CCc1noc(C)c1C(=O)Nc1nc2c(F)cc(F)cc2s1 | 0.8% | . | . | -9% |
| COc1cc(OC)nc(Oc2ccccc2/C=N/O)n1 | -3.9% | . | . | -4% |
| COCCN(C(=S)Nc1ccc(C)c(C)c1)C(C)c1ccco1 (configuration not stated) | 5.2% | 0 | -4% | ? |
| Cc1c(S(=O)(=O)N2CCC(C)CC2)c(=O)n(C)c(=O)n1C | -1.6% | . | . | 0% |
| CCOc1ccc(OCCCC(=O)NNC(=O)c2ccncc2)cc1 | 1.5% | . | . | 12% |
| C=C/C(C)=C/C[C@H]1C(=C)CCC2[C@](C)(C(=O)O)CCC[C@@]21C (some centres not stated) | -3.1% | . | . | 8% |
| O=C(CSc1n[nH]c(=O)[nH]c1=O)Nc1c(Cl)cc(Cl)cc1Cl | 3.3% | . | . | -1% |
| Cc1ccc(CC(NC(=O)c2ccc(C)cc2)C(=O)O)cc1 (configuration not stated) | 0.5% | . | . | ? |
| CN(C)S(=O)(=O)c1cc(NC(=O)COC(=O)C2CSC3(C)CCC(=O)N23)ccc1Cl (configuration not stated) | 3.8% | 4 | 0% | 26% |
| CCOC(=O)c1[nH]cnc1C(=O)N1CCN(C(=O)OC(C)(C)C)CC1 | 2.3% | . | . | 1% |
| Nc1ccc(S(=O)(=O)Nc2ccc(S(N)(=O)=O)cc2)cc1 | -4.5% | -4 | -3% | 17% |
| COc1ccc(Nc2nc3c(c(=O)n(C)c(=O)n3C)n2CCO)cc1 | -4.0% | 7 | -5% | -14% |
| Cc1c(NC(=O)c2cccc(NS(C)(=O)=O)c2)c(=O)n(-c2ccccc2)n1C | 2.7% | 1 | -3% | 1% |
| COc1ccc(OC)c(NC(=O)Nc2nnc(N3CCC(C)CC3)s2)c1 | -0.5% | 4 | -2% | 20% |
| NC(=O)c1cc(-c2ccncc2)nc2ccc(Cl)cc12 | -2.2% | 4 | 2% | -13% |

A portion of the library; the hit share may differ from the screen's.
